Source: PubChem BioAssay
Ba CapD inh: inhibitors of Bacillus anthracis CapD enzyme. purified CapD enzyme, fluorescence intensity read-out; active compounds read low; some hits fall short of the stated cut. z-score (no concentration beside the values). hit rate 0.23% among 140,000. AID 492967;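 active = z-score under -4 in either of two replicates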;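 note: stock transfer was 100 nL into about 40 µL; score is relative to mean and spread of the plate; one replicate is shown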
AID504770: growth inhibitors of E. coli YBA685 in a screen for V. cholerae RctB (chromosome II replication) inhibitors; E. coli YBA685 rctB-dependent plasmid, OD600 growth, 3 h; active compounds read low; z-score (no concentration beside the values); hit rate 0.27% among 130,000; AID 504770;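 active = z-score under -2 on both plates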;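 note: wells of about 30 µL received 100 nL stock; score is relative to mean and SD of the test wells; the first replicate is given; strong numbers were not always called active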
Active calls of the source: *; i = inactive; x = not tested or not shown.

SMILES	Ba CapD inh	AID504770
CC(C)(C)CC(C)(C)NC(=O)Cc1cccs1	0.28	-0.3
c1ccc(-n2c(SCc3ccncc3)nnc2-c2ccco2)cc1	-0.51	x
CC1(C)OC2OC(C(=O)NCc3ccccc3)C3OC(C)(C)OC3C2O1 (stereo not drawn)	0.12	x
C=C(C)Cn1c(CCCNC(=O)c2ccc(F)cc2)nc2ccccc21	0.41	-0.4
O=C(CSc1cccc[n+]1[O-])c1ccco1	x	-0.15
CN(C)c1nc2n(c(=O)n1)CCS2	0.065	-0.6
COc1ccc(C2CC(C(F)(F)F)n3nc(C(=O)Nc4cccc(C(F)(F)F)c4)cc3N2)cc1OC (stereo not drawn)	-0.23	x
Cc1cc(NC(=O)c2cc(-c3ccc(F)cc3)no2)nn1CC(=O)N1CCOCC1	-0.83	1.1
O=C1Nc2ccccc2/C1=C/c1ccc(CN2C(=O)c3ccccc3C2=O)o1	-2.5	0.5
Nc1cc(=O)[nH]c(SCC(=O)c2cccs2)n1	-0.08	-1.1
NC1=C(C(=O)OCc2ccccc2)C2(C(=O)Nc3ccc(Br)cc32)C2=C(O1)C(=O)CCC2 (stereo not drawn)	0.18	0.05
CC(C)CSc1nnc(Cn2cnc3ccccc32)n1-c1ccccc1Cl	x	1.4
COc1cccc(N2C(=O)CC(SCC(=O)Nc3ccc4ccccc4c3)C2=O)c1 (stereo not drawn)	9.6	0.2
CCN(c1cccc(C)c1)c1ncnc2c1cnn2-c1ccc(C)cc1C	0.66	-0.25
CC(C)C(C(=O)O)N1C(=O)/C(=C/c2ccccn2)SC1=S (stereo not drawn)	x	-0.25
COC(=O)c1c(NC(=O)CN2C(=O)c3cccc4cccc2c34)sc2c1CCCC2	0.21	0.3
COc1cccc(C(=O)Cn2nc(-c3ccco3)ccc2=O)c1	x	1.3
Cc1cc(NC(=O)c2cc(-c3ccc(F)cc3)no2)nn1CC(=O)NCc1ccco1	0.12	2.7
CC(C)(C)OCC(NC(=O)OC(C)(C)C)C(=O)N1CCN(C/C=C/c2ccccc2)CC1 (stereo not drawn)	0.05	x
Cc1ccc(C(=O)N2CC(=O)Nc3ccccc32)cc1	x	-0.8
Cc1ccc2c(cnn2C(=O)CCCC(=O)N2CCN(C)CC2)c1	-0.1	0.2
COC(=O)c1ccsc1NC(=O)c1ccccc1	6	-0.3
ClC(=NC1CC1)c1ccccc1	x	-1.4
NC(=O)c1cn(-c2ccccc2)nc1-c1ccccc1	0.13	-0.55
Oc1c(C=NC2CCCCCC2)sc2ccccc12	-1.9	x
O=C(O)/C=C/C(=O)NC1CCCCC1	x	0.3
CN(C)CC(O)COc1ccc2ccccc2c1 (stereo not drawn)	x	0.05
COc1ccc(-c2cn3cc(Br)ccc3n2)cc1	0.43	-0.65
COC(=O)C(CCCCN1C(=O)C2C3C=CC(C3)C2C1=O)N1C(=O)C2C3C=CC(C3)C2C1=O (stereo not drawn)	-0.11	x
COC(=O)CSc1nc2sc3c(c2c(=O)n1-c1ccccc1)CCCC3	0.38	x
CCOC(=O)COc1ccc(Cl)cc1C(=O)OC	-0.31	-0.15
O=C(Cn1c2ccccc2c2cn[nH]c(=O)c21)NCCC1=CCCCC1	-0.42	-0.55
Cc1cc(SCC(=O)OCC(=O)N2CCCC2)c(C)cc1Br	0.01	-0.25
O=C1C2CCCN2C(=O)C2CCCN12 (stereo not drawn)	-0.4	-0.45
CSc1nc2sc3c(c2c(=O)n1-c1cccc(Br)c1)CC(C)(C)OC3	-0.05	0.15
Cc1nc(-c2ccccn2)[nH]c(=O)c1Cl	0.005	x
CN1CCC2(CC1)CC(NC=O)c1ccccc1O2 (stereo not drawn)	x	-0.5
CC1CCc2c(sc3[nH]c(=S)[nH]c(=O)c23)C1 (stereo not drawn)	-0.17	x
CN(C(=O)c1ccc(-c2nn(C)c(=O)c3ccccc23)cc1)c1ccccc1	0.05	-0.2
O=C(NCC1(N2CCCCC2)CCCCC1)c1ccc2c(=O)n3c(nc2c1)CCCCC3	x	0.1
NC(=O)CNS(=O)(=O)c1ccc(Br)c(C(=O)O)c1	x	0.3
O=c1[nH]c2ccc(Br)cc2c(-c2ccccc2)c1CN1CCCCC1	0.69	-0.65
Cc1c(C(=O)N2CCN(c3ccccc3F)CC2)sc2ncn(CC(=O)N3CC(C)CC(C)C3)c(=O)c12 (stereo not drawn)	-0.2	x
O=C(NCc1nc(-c2ccccc2F)no1)C1CC1	-0.095	-0.45
O=C(c1cc2ccccc2oc1=O)N1CCCCCC1	x	1
COc1cccc(C(=O)Nc2nncs2)c1	x	-0.7
O=C(O)CSc1nnc2n1-c1ccc(Cl)cc1NN2	-0.69	0.8
c1ccc(-c2ncc(-c3ccncn3)c(-c3ccncc3)n2)nc1	0.3	x
CCOc1ccc(-c2cc3nc(C4CCN(C(=O)OC(C)(C)C)CC4)c(C(=O)O)cn3n2)cc1	19	2
Cc1ccc(COC(=O)c2ccc(=O)[nH]n2)cc1	x	-0.35
Further structures
SMILES	Ba CapD inh	AID504770
O=C(c1ccc2c(=O)n3c(nc2c1)CCCCC3)N1CCCCCC1	0.27	-0.25
CCn1c2ccccc2c2cc(C=Nc3ccc(S(N)(=O)=O)cc3)ccc21	26	-0.4
CC(C#N)OC(=O)c1ccccc1Oc1ccccc1 (stereo not drawn)	x	1.1
Cc1nc2ccc(NC(=O)COc3ccc(Cl)cc3)cc2s1	i	1.6
Oc1ccc(Oc2ccc(Oc3ccc(O)cc3)cc2)cc1	-0.075	2
CC1CCC(NC(=O)c2ccc3c(c2)NC(=O)CS3)CC1 (stereo not drawn)	-0.5	-0.3
O=C(Cc1cn2ccsc2n1)OCC(=O)c1ccccc1	x	-0.35
O=C(N/N=C\c1c(Cl)cccc1Cl)c1nc(CS(=O)(=O)c2ccc(Cl)cc2)no1	-0.23	2
O=C(CSC1=NCCc2ccccc21)c1ccc(Cl)c(Cl)c1	0.11	x
CC(=O)Nc1ccc(NC(=S)NC(=O)C2CCCC2)cc1	-0.43	0.15
N#Cc1ccc(Oc2ncnc3c2oc2ccccc23)cc1	x	-0.65
O=C(Nc1ccc(S(=O)(=O)N2CCOCC2)cc1)c1ccc(Br)s1	x	0.55
Cc1nc2ccc(S(=O)(=O)N(C)CC(=O)NC3CCN(Cc4ccccc4)CC3)cc2s1	0.21	-0.05
COc1cc2c(cc1OC)C(C)N(C(=O)CN1C(=O)CCc3ccccc31)CC2 (stereo not drawn)	-0.2	-2.9*
Cn1c(=NC(=O)Cc2cccs2)sc2cc(F)ccc21	0.43	1
COc1ccccc1OCCSc1nc2ccccc2n1CCO	-0.59	x
Cc1cc(/C=N/NS(=O)(=O)c2cccc(C(F)(F)F)c2)no1	0.26	0.2
Cc1cc[n+](CCC(=O)O)c2ccccc12	12	-1.1
Cc1nn(-c2ccccc2)nc1CNS(=O)(=O)c1c(C)noc1C	-0.02	-1.1
Cc1noc(C)c1CSc1nnc(-c2ccccc2)o1	x	-0.6
CC12CC3(C)CC(C)(C1)CC(C(=O)NC(C)(C)CO)(C2)C3	0.26	-1.1
CC1CN(C(=O)COC(=O)c2ccc(S(=O)(=O)C(F)F)cc2)CC(C)O1 (stereo not drawn)	x	0.75
CCOC(=O)c1sc2nc(SCC(=O)NCc3ccco3)n(Cc3ccc(OC)cc3)c(=O)c2c1C	8.3	x
CC(=O)N1c2c(C)cc(C)cc2-c2c(ssc2=S)C1(C)C	-0.16	x
O=C1NC(=S)S/C1=C\c1c(NCc2ccco2)nc2ccccn2c1=O	-0.28	0.75
O=C1CC(c2ccccc2C(F)(F)F)c2ccc3ccccc3c2N1 (stereo not drawn)	0.36	x
C=CCn1c(=O)c2c(ncn2C)n(C)c1=O	0.03	-0.15
CC(C)(C)c1cc(C(=O)/C(C#N)=C/Nc2ccccc2)no1	-0.42	1.4
O=C(Nc1ccccc1)C1CCCN1C(=O)Nc1ccc(F)cc1 (stereo not drawn)	x	2
Cc1ccc2[nH]c(=O)c(-[n+]3ccccc3)c(-c3ccccc3)c2c1	-0.33	0.45
CCc1nc2ccc(N)cc2[nH]1	x	-0.5
CCOc1cc(C=C2C(=O)N(C)C(=S)N(C)C2=O)ccc1OC(C)C(=O)O (stereo not drawn)	1.1	0.05
COC(=O)c1ccc2c(=O)n(CCN3CCOCC3)c(SCC(=O)c3ccccc3)nc2c1	-0.01	-2.3
O=C(OCc1cc(F)ccc1C(F)(F)F)N1CCN(Cc2ccccc2OCc2ccccc2)CC1	-0.42	x
CN(C)S(=O)(=O)c1ccc(C(=O)OCC(=O)c2csc(N3CCCCC3)n2)cc1	x	-0.1
O=c1cc(-c2ccccc2)oc2c(O)c(O)ccc12	0.22	0.6
Cc1nnc2c(SC(C)C)nc3ccccc3n12	-0.27	0.65
COc1cc(/C=C/C(=O)OCc2cc(=O)n3ccsc3n2)ccc1OC(F)F	x	-0.35
Cc1nc2sccn2c1-c1csc(Nc2ccc(C(=O)O)cc2)n1	73	-0.9
CN(C)c1n[nH]c(N(C)C)n1	-0.35	0.75
COc1cccc(/C=N/NC(=O)c2cc(Cl)ccc2OC)c1	-1.3	x
COc1cc(CCNC(=O)OCCc2cccc(C)c2)cc(OC)c1	1.5	x
C=CCNC(=O)c1cc2nc(C3CC3)cc(C(F)F)n2n1	1.3	0.65
COC(=O)c1cc(Cl)ccc1NC(/C=C/N(C)C)=C/C(=O)C(F)(F)F	-0.3	x
COc1ccccc1NC(=O)C(C)OC(=O)C1COc2ccccc2O1 (stereo not drawn)	x	2
CC(C)(C)NC(=O)c1nn2c(C(F)(F)F)cc(-c3ccccc3)nc2c1Br	-0.92	x
CN(C(=O)CN1C(=O)c2ccccc2C1=O)C1CCCCC1	x	-0.75
Clc1ccc(Oc2nc(-c3ccccc3)ns2)cc1	0.53	-1.4
N#Cc1cc2c(nc1S(=O)Cc1ccc(Cl)cc1)CCCC2 (stereo not drawn)	-0.83	1.2
COc1cc(/C=C2/N=C(c3ccco3)OC2=O)cc(Cl)c1OC(=O)c1ccccc1	2.3	x
(further entries)
SMILES	Ba CapD inh	AID504770
CCCNc1cc(C)nc2nc(-c3ccc(OC)cc3)nn12	0.69	-0.15
O=C(c1csc(-c2cnccn2)n1)N1CCC(n2c(=O)[nH]c3ccccc32)CC1	0.71	x
O=[N+]([O-])c1cccnc1N1CCN(c2ncc(C(F)(F)F)cc2Cl)CC1	-1.3	x
COC(=O)c1cc2c(N)c(C(=O)c3cc(C#N)c(SC)nc3C)sc2nc1C	x	2.3
COc1ccc(NCN2C(=O)S/C(=C/c3ccc4c(c3)OCO4)C2=O)cc1Cl	-0.025	x
Cc1cc(NC(=O)Cn2cnc3c(cnn3-c3ccc(Cl)cc3)c2=O)no1	0.02	-0.75
O=C1Nc2cc(C(=O)N3CCc4ccccc4C3)ccc2Sc2ccccc21	0.18	-0.2
CC1(C)C(=O)Nc2ccccc2N1C(=O)COc1ccc(S(=O)(=O)N2CCOCC2)cc1Cl	x	-0.15
COc1cccc(Nc2ncnc3cc(OC)c(OC)cc23)c1	4.4	x
COc1ccc2c(c1)sc(=NC(=O)CSC(C)=O)n2C	5.1	-0.35
CCOC(=O)N1CCC(NC(=O)c2ccc(CS(=O)(=O)c3ccccc3C)o2)CC1	0.07	-0.25
CCOC(=O)c1cnc(-c2ccccc2)nc1N1CCOCC1	-0.78	1.1
Cc1cccc(CS(=O)(=O)c2ncn[nH]2)c1	-0.31	0.85
CCCNC(=O)C1CCCN(c2nnc(N3CCCC3=O)s2)C1 (stereo not drawn)	-0.1	-0.1
CN(C)S(=O)(=O)n1ccnc1	-0.83	2
NC(=O)c1cnn(-c2ccc(S(N)(=O)=O)cc2)c1NC(=O)c1c(F)cccc1F	x	0.15
Cc1ccc(S(=O)(=O)N2CCCCC2)cc1C	0.46	0.95
CC(NC(=O)C1CC1)C(c1cccs1)N1CCN(Cc2ccccc2)CC1 (stereo not drawn)	x	0.5
CC(=O)Nc1ccc(NC(=O)[C@@H](NC(=O)c2ccc(F)cc2)C(C)C)cc1	x	-0.1
O=C(c1ccc(CS(=O)(=O)c2c(Cl)cccc2Cl)o1)N1CCN(Cc2ccccc2)CC1	0.63	-0.7
Cc1cccc(NC(=S)N(C)C2CCCCC2)c1	x	-1.1
CCOc1ccc(S(=O)(=O)N(CC(=O)NC2CC2)c2ccccc2)cc1	71	-0.15
O=C1CCN(C(=O)c2ccccc2)c2ccccc2N1	30	x

13 structures from above, sorted by number of heavy atoms, highest first:
SMILES	Ba CapD inh	AID504770
CC1(C)C(=O)Nc2ccccc2N1C(=O)COc1ccc(S(=O)(=O)N2CCOCC2)cc1Cl	x	-0.15
O=C(c1ccc(CS(=O)(=O)c2c(Cl)cccc2Cl)o1)N1CCN(Cc2ccccc2)CC1	0.63	-0.7
CCOC(=O)N1CCC(NC(=O)c2ccc(CS(=O)(=O)c3ccccc3C)o2)CC1	0.07	-0.25
NC(=O)c1cnn(-c2ccc(S(N)(=O)=O)cc2)c1NC(=O)c1c(F)cccc1F	x	0.15
COC(=O)c1cc2c(N)c(C(=O)c3cc(C#N)c(SC)nc3C)sc2nc1C	x	2.3
Cc1cc(NC(=O)Cn2cnc3c(cnn3-c3ccc(Cl)cc3)c2=O)no1	0.02	-0.75
CCOc1ccc(S(=O)(=O)N(CC(=O)NC2CC2)c2ccccc2)cc1	71	-0.15
COc1cccc(Nc2ncnc3cc(OC)c(OC)cc23)c1	4.4	x
O=C1CCN(C(=O)c2ccccc2)c2ccccc2N1	30	x
Cc1cccc(NC(=S)N(C)C2CCCCC2)c1	x	-1.1
Cc1ccc(S(=O)(=O)N2CCCCC2)cc1C	0.46	0.95
Cc1cccc(CS(=O)(=O)c2ncn[nH]2)c1	-0.31	0.85
CN(C)S(=O)(=O)n1ccnc1	-0.83	2
